Assay outcomes (PubChem BioAssay)
FBW7 activator: activators of human E3 ligase FBW7 | 650,000 tested, 0.13% active | normalized activity (activation), % at 26.1 µM | AID 1259310 | AlphaScreen FBW7–phospho-cyclin E peptide binding, activator screen | Q969H0; in the data active = normalized activity above about 1.9%;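 note: purified mutant Fbw7 with reduced substrate affinity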
MITF inh: inhibitors of human MITF; inhibition, % at 2.6 µM; O75030; AlphaScreen MITF homodimerization, bead proximity signal; 650,000 tested, 0.91% active; in the data active = inhibition above about 50%;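 note: 0% = vehicle wells with protein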
GPR151 activ: activators of human GPR151; activation, % at 11.2 µM; PathHunter beta-arrestin GPR151 cells, luminescence; Q8TDV0; 650,000 tested, 1% active; in the data active = activation above about 4.9%;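 note: 0% = median of compound wells and 100% = cells with positive control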
Target sequence (Q8TDV0 whole entry, looked up): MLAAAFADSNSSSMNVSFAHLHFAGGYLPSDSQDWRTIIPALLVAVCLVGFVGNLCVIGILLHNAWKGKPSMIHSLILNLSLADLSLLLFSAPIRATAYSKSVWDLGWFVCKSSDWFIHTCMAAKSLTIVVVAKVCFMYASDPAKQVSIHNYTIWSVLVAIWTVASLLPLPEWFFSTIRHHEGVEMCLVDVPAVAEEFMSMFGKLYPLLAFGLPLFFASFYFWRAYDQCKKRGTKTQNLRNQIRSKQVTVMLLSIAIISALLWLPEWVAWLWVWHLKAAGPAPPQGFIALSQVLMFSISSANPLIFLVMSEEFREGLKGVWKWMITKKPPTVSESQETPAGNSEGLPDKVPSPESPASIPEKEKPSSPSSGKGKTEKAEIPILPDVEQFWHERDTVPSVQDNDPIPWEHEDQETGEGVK
The depositor's hits bear a star; & = joins results of further samples.

Results follow in this order: MITF inh	FBW7 activator	GPR151 activ
> COc1ccc(C2=CC(c3c(F)cccc3Cl)n3ncnc3N2)cc1 (stereo not given)
    0.9	0.0	0.4
> COc1ccc(/C=C/C(=O)c2ccc(F)cc2)c(OC)c1
    4.2	0.6	1.1
> COc1ccc(C(=O)Nc2ccc(Cl)cc2C(NCC(=O)NN)c2ccccc2)cc1 (stereo not given)
    13.5	0.9	-1.0
> C=CCNC(=S)N/N=C\c1c(O)ccc2ccccc12
    18.1	-0.5	0.6
> O=[N+]([O-])c1ccccc1/C=C/c1ccc2cccc(O)c2n1
    10.3	0.0	-1.8
> NS(=O)(=O)c1ccc(NC(=O)CN2CCN(c3ccccn3)CC2)cc1
    -10.0	-0.1	-2.1
> O=C(OCCCN(C1=NS(=O)(=O)c2ccccc21)c1ccccc1)c1ccccc1
    9.5	-0.1	-1.3
> CN(C)c1ccc(/C=N/NC(N)=S)cc1
    1.5&-9.7	-0.1&-0.2	0.4&0.1
> Cc1ccc(Nc2ccc([N+](=O)[O-])c3nonc23)cc1
    6.0	0.0	-0.5
> CCN(CC)CC#Cc1ccccc1
    -6.3	1.0	-0.1
> O=C(N/N=C/c1ccccn1)c1cccc(Br)c1
    14.9	-0.4	1.0
> O=C(O)CCN1C(=O)c2ccc(NC(=O)CCC3CCCCC3)cc2C1=O
    -6.0	0.4	-1.8
> Cc1ccc(C(=O)CC2OC(=O)c3ccccc32)cc1 (stereo not given)
    -17.5	0.0	1.1
> O=C(/C=C/c1cccs1)c1ccccc1
    12.8	-0.1	-0.1
> CCN(CC)c1ccc2cc(-c3nc4ccccc4o3)c(=O)oc2c1
    -37.6	0.7	2.0
> O=C(NCc1ccc(Oc2ccccc2)cc1)c1cnc2ccccn12
    -18.8	-0.1	-0.7
> COc1ccc(-c2nc(C(N)=O)c3[nH]c(=O)n(-c4ccccc4OC)c3n2)cc1O
    2.9	-0.1	-0.1
> COc1ccccc1/C=N\NC(N)=S
    -2.3	-0.4	-0.5

Reformatted comma-delimited: entries from further up
compound,MITF inh,FBW7 activator,GPR151 activ
O=C(N/N=C/c1ccccn1)c1cccc(Br)c1,14.9,-0.4,1.0
C=CCNC(=S)N/N=C\c1c(O)ccc2ccccc12,18.1,-0.5,0.6
CCN(CC)c1ccc2cc(-c3nc4ccccc4o3)c(=O)oc2c1,-37.6,0.7,2.0
Cc1ccc(Nc2ccc([N+](=O)[O-])c3nonc23)cc1,6.0,0.0,-0.5
COc1ccccc1/C=N\NC(N)=S,-2.3,-0.4,-0.5
COc1ccc(-c2nc(C(N)=O)c3[nH]c(=O)n(-c4ccccc4OC)c3n2)cc1O,2.9,-0.1,-0.1
COc1ccc(C(=O)Nc2ccc(Cl)cc2C(NCC(=O)NN)c2ccccc2)cc1 (stereo not given),13.5,0.9,-1.0

Another view of some results above:
| SMILES | MITF inh | FBW7 activator | GPR151 activ |
| --- | --- | --- | --- |
| Cc1ccc(Nc2ccc([N+](=O)[O-])c3nonc23)cc1 | 6.0 | 0.0 | -0.5 |
| CCN(CC)CC#Cc1ccccc1 | -6.3 | 1.0 | -0.1 |

Only part of the results is shown. The share of hits here may be higher or lower than overall.
